Source: PubChem BioAssay (several laboratories)
RanGTP-Impb inh: disruptors of Ran-importin-beta complex formation – biochemical, FRET, CFP-Ran, YFP-importin-beta, homogeneous, primary screen | cell-free CFP-Ran/YFP-importin-beta FRET ratio | inhibition, % (concentration not given with the values) | 1.1% of 300,000 active;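 active = most replicates above 15%; inconclusive = exactly half above 15%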;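 also: 0% = DMSO wells and 100% = Ran loaded with GDP instead of GTP; wells of about 40 µL received 100 nL stock; the first replicate is given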
Vif TR-FRET: HIV-1 Vif–A3G interaction blockers – biochemical, TR-FRET, GST-Vif 1-94, biotin-A3G peptide, dose response retest, primary screen (AID 1117319); TR-FRET GST-Vif / biotin-A3G peptide binding; higher % means a stronger effect; test concentration not given here; strong numbers were not always called active; inhibition, %; hits with a dose series show IC50 in µM; 0.57% of 260,000 active;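 active = above the screen mean plus three standard deviations and confirmed in dose response; inconclusive = results disagree or hit not tested in dose response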;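 also: Vif residues 1-94 fused to GST binding biotinylated APOBEC3G peptide 110-148; 0% = full assay without inhibitor and 100% = GST in place of GST-Vif; retest series ran down from 100 µM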
AF4-AF9 inh: blocks AF4 peptide binding to human AF9. P42568. AlphaScreen, biotin-AF4 peptide binding to FLAG-AF9. 0.47% of 350,000 active. inhibition, % at 10 µM;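 active = every replicate reaching a set inhibition limit, whatever the replicate mean, cut at about 25% in these data; inconclusive = mean inhibition reaches that limit but some replicates miss it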;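 also: 0% = plate neutral control median and 100% = total signal loss; the record names both 10 and 1 µM as test concentration; the first replicate is given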
UCH37 DUB inh: human UCH37 deubiquitinating enzyme inhibition; purified proteasome/UCH37, Ub-AMC cleavage fluorescence; 0.33% of 330,000 active; inhibition, % (no concentration beside the values); AID 588478;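 active = mean of two replicates above 20%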;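 also: 0% = compound-free wells with enzyme and 100% = wells lacking proteasome; stock transfer was 100 nL into about 20 µL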
Target sequence (Q9Y5K5 whole entry, looked up): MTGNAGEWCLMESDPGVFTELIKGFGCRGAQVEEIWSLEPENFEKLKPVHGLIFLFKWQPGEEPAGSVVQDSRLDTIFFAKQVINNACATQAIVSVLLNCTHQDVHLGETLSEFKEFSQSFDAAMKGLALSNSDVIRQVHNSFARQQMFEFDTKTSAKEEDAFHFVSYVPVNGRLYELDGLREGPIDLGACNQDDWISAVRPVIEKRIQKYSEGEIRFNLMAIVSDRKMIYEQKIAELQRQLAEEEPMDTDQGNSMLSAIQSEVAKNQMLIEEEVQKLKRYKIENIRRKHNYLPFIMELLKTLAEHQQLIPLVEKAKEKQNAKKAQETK
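Material: Human UCH37 enzyme supplied as purified proteasome complex | Schedule: 30 min preincubation with enzyme, 25 min cleavage at room temperature | Detection: AMC fluorescence 355/460 nm | Measure: % inhibition of Ub-AMC cleavage fluorescence | Controls: Wells without proteasome as full block, compound-free enzyme plus substrate as uninhibited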
Ecoli growth: blocks Escherichia coli growth; OD600 absorbance (concentration not given with the values); OD600, 23 h; stronger effect = lower value; 0.21% of 330,000 active;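 active = OD600 absorbance below the run mean of sample wells minus 3.6 SD, in any replicate, cut at about 0.56 in these data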;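 also: stock transfer was 300 nL into about 60 µL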
FGF22 binding: binders of recombinant human FGF22 by thermal shift; SYPRO orange fluorescence; percent of sucrose octasulfate shift, DMSO zero; calls only at 9.99 µM; 1.5% of 340,000 active;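 active = melting point raised past a set limit in the mean and every replicate; inconclusive = no clear call; three in four hits are not shown here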
Target sequence (Q9HCT0 whole entry, looked up): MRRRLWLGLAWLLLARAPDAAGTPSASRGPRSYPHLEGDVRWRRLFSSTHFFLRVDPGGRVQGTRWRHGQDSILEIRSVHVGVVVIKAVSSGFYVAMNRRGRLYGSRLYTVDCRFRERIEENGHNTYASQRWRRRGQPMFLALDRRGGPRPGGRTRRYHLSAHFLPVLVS
HNF4A DNA FP: change in binding of human HNF4 alpha to DNA; HNF4a-FITC DNA binding, fluorescence polarization, 1 h; P41235; activity change, % at 10 µM; 0.3% of 360,000 active; in the data active = activity change above about 30%, passing the limit was not always enough;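 also: controls were the assay level and a saturating level of protein; the project sought stronger binding though the title names inhibitors; some compounds called inactive have numbers as strong as hits; positive values seem to mean higher polarization but the record does not say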
Target sequence (P41235 whole entry, looked up): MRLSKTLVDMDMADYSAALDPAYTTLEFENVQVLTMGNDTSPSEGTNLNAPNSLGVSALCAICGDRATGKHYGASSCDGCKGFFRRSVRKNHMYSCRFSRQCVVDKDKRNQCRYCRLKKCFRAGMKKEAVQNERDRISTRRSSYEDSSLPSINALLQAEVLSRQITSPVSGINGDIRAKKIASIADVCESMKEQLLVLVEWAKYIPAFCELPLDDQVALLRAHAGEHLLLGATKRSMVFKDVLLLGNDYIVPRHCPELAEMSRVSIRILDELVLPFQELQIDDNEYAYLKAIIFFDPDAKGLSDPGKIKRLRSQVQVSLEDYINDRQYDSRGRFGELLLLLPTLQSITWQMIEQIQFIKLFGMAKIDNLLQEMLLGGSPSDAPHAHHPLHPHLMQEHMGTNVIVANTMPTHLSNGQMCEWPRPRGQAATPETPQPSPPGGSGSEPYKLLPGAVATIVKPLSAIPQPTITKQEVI
Starred values were filed as active, the others as inactive; i = inactive; ? = inconclusive; . = no result given; + = active, no number; & = joins results of further samples. These rows are one share of the data; the hit share may differ from the screen's.

RanGTP-Impb inh	SMILES	Vif TR-FRET	AF4-AF9 inh	UCH37 DUB inh	Ecoli growth	FGF22 binding	HNF4A DNA FP
.	c1csc(CNc2ccc3c(c2)OCCO3)c1	?	3.0	-7.3	0.668	i	1.3
4.6	O=C(C1CCN(C2CCN(Cc3cccc4c3OCO4)CC2)CC1)N1CCOCC1	4.8%	-2.1	2.6	0.692	i	7.4
.	CCOc1nc(OCC)c2[nH]c(C(=O)O)c(Br)c2n1	.	1.1	.	.	i	4.6
.	CC(=O)NC(c1cc(Cl)c2ccccc2c1O)C(C)C (centres undefined)	.	11.3	0.2	0.635	i	0.3
.	O=C(OCc1cn([C@H]2C[C@H](c3ccc(Cl)cc3)N(C(=O)C3CCCCC3)C[C@@H]2O)nn1)c1ccccc1	.	0.2	.	.	i	3.4
-0.2	CCn1c2ccccc2c2cc(NC(=O)CSc3nnc(-c4ccccc4)o3)ccc21	-12.1%	.	-1.1	0.746	.	0.2
-2.2	CC1(C)CC(=O)C2=C(C1)N(c1ccc(F)cc1)C(=O)C2(NC(=O)c1ccccc1)C(F)(F)F (centres undefined)	-19.5%	.	0.0	0.702	.	.
1.2	CC(C)Oc1ccc(CCC(=O)NNC(=O)CCC(=O)O)cc1	20.1%	2.2	3.3	0.676	i	1.4
.	O=C(c1cccs1)N1C[C@@H](n2cc(-c3ccc(F)cc3)nn2)[C@H](O)C[C@@H]1c1ccccc1	-10.9%	-0.2	.	.	i	6.4
-6.2	COc1ccccc1-c1cc(C(=O)NCCN2CCOCC2)no1	17.7%	.	-0.6	0.657	.	-1.3
.	Cc1cccc(C)c1NC(=O)C1(C)CSCC(=O)N1CCOc1ccccc1 (centres undefined)	.	-2.9	.	.	i	7.8
-0.7	CC(Oc1ccc2c(-c3ccccc3)cc(=O)oc2c1)C(=O)O (centres undefined)	0.6%	.	1.0	0.651	.	1.2
2.5	CCCCOc1ccc(-c2ncc(C(=O)OCC)c(N)n2)cc1	-0.6%	.	-1.2	0.708	.	-4.3
-0.8	O=C(O)C1CC=CCC1C(=O)Nc1cc(Cl)ccc1Cl (centres undefined)	13.2%	.	2.2	0.666	.	4.3
.	CCOc1ccc(NC(=O)c2ccc3c(c2)OCCO3)cc1S(=O)(=O)N(CC)CC	.	1.7	1.9	0.701	i	-0.2
2.9	COc1ccccc1OCc1nnc(SCC(=O)N2CCCCC2)n1-c1ccccc1	10.2%	.	2.8	0.714	.	0.0
-1.8	CCOC(=O)C(/C(C)=N/NC(=O)C1CC1c1ccccc1)C(C)C (centres undefined)	-10.1%	.	.	.	.	1.6
1.1	COCCNC(=O)C1c2ccccc2C(=O)N(CCOC)C1c1ccc(F)cc1 (centres undefined)	8.1%	.	-0.7	0.713	.	5.3
1.1	Cc1cc(N/C(=N\S(=O)(=O)c2ccc(Cl)cc2)c2ccc(F)cc2)no1	-2.1%	.	.	.	.	0.6
20.3*	Nc1c(/C=C2\C=Nc3ccccc32)c(=O)nc2sc(CC(=O)N3CCOCC3)nn12	.	-1.0	9.1	0.725	i	3.8

Compound profiles (already shown). Order of screens: RanGTP-Impb inh, Vif TR-FRET, AF4-AF9 inh, UCH37 DUB inh, Ecoli growth, FGF22 binding, HNF4A DNA FP
CC(=O)NC(c1cc(Cl)c2ccccc2c1O)C(C)C (centres undefined) as listed: ., ., 11.3, 0.2, 0.635, i, 0.3
Nc1c(/C=C2\C=Nc3ccccc32)c(=O)nc2sc(CC(=O)N3CCOCC3)nn12 as listed: 20.3*, ., -1.0, 9.1, 0.725, i, 3.8
COc1ccccc1OCc1nnc(SCC(=O)N2CCCCC2)n1-c1ccccc1 as listed: 2.9, 10.2%, ., 2.8, 0.714, ., 0.0
Cc1cc(N/C(=N\S(=O)(=O)c2ccc(Cl)cc2)c2ccc(F)cc2)no1 as listed: 1.1, -2.1%, ., ., ., ., 0.6

Other entries:
RanGTP-Impb inh	SMILES	Vif TR-FRET	AF4-AF9 inh	UCH37 DUB inh	Ecoli growth	FGF22 binding	HNF4A DNA FP
0.8	C/C=C(\C)C(=O)NCCN1C2=NC[C@@H](C)N2C[C@@H]1Cc1ccc(OC)cc1	-4.8%	4.1	3.7	.	i	-0.8
4.2	OCCN(Cc1nc(-c2ccc3c(c2)OCO3)no1)Cc1cccs1	1.2%	-1.4	3.6	0.721	i	-2.3
-0.6	COc1ccc(S(=O)(=O)N2CCOC2CNC(=O)C(=O)NCc2ccncc2)cc1OC (centres undefined)	.	-2.3	3.4	0.706	i	1.1
2.8	O=C(CC(C(=O)O)c1ccc(Cl)cc1)c1ccc(Cl)c(Cl)c1 (centres undefined)	-6.8%	1.5	4.8	0.693	i	0.8
3.4	CN(Cc1ccccc1)S(=O)(=O)c1ccc(Cl)c(C(=O)NCCc2ccccn2)c1	-3.9%	1.3	0.7	0.698	i	7.6
-4.4	Cc1cc2c(C)ccc(C)c2nc1SCC(=O)c1cccs1	-0.1%	.	4.6	0.733	.	-1.6
-0.9	COc1ccc(CCN(C)C2CCCN(C(=O)c3sccc3C)C2)cc1OC (centres undefined)	.	-1.1	.	.	i	2.3
-5.6	N#CCCN1CCCc2cc(N=Nc3ccc(C(F)(F)F)cc3)ccc21	5.6%	16.9	8.5	0.72	i	2.3
.	CC(=O)c1ccc(N2CCN(S(=O)(=O)c3ccc4c(c3)C(Cl)(Cl)C(=O)N4)CC2)cc1	.	2.0	.	.	i	-2.5
-3.8	Cc1ccc(C#N)c(SCc2ccccc2F)n1	-1.6%	-2.8	1.3	0.708	i	0.4
-3.6	COc1ccc(C(=O)NCc2nnc(SCC(=O)Nc3ccc4c(c3)OCO4)o2)cc1	4.0%	-1.7	2.7	0.673	i	-2.0
3.1	CCC(=O)Nc1ccc(C(=O)Nc2ccc3c(c2)C(=O)N(CC2CCCO2)C3=O)cc1 (centres undefined)	1.9%	.	-207.3	0.796	.	2.1
-2.6	CCc1ccc(S(=O)(=O)Nc2ccc(O)c3c(=O)cc(-c4ccccc4Cl)oc23)cc1	2.5%	0.9	2.3	0.726	+	-0.3
.	CC(=O)Nc1ncc(Sc2ccc([N+](=O)[O-])cc2)s1	-3.5%	-0.7	-0.4	0.679	i	-0.6
?	CCCCC(=O)Nc1cccc(-c2cn3ccccc3n2)c1	-6.9%	-44.1	-26.7	0.64	i	2.2
.	COc1ccc(CCN2CC(C(=O)OCc3ccccc3Cl)CC2=O)cc1OC (centres undefined)	0.4%	-2.0	-0.5	0.671	i	0.1
5.5	CC(=O)CCc1oc2ccccc2c1-c1ccccc1	-4.2%	-6.8	0.1	0.708	i	-0.4
-0.8	CCn1ncc([N+](=O)[O-])c1C(=O)Nc1c(C)nn(Cc2ccc(F)cc2)c1C	-11.2%	4.7	1.8	0.682	i	-8.4
?	Cc1oc(-c2ccccc2Cl)nc1CSCC(=O)NC1CC1	26.6%	.	0.2	0.687	.	1.9
1.7	CCc1ccc(OCC(=O)Nc2ccc3[nH]ncc3c2)cc1	.	0.7	0.4	0.666	i	0.0
2.0	O=S(=O)(NNC(=S)NCC1CCCO1)c1cc(Cl)ccc1Cl (centres undefined)	.	-1.5	3.6	0.742	i	4.5
.	COc1ccc(C)cc1NC(=O)CN1CCN(S(=O)(=O)c2ccc3ccccc3c2)CC1	2.0%	-0.7	1.0	0.751	i	-0.3
1.7	O=C(CCN1CCN(c2ccccn2)CC1)Nc1ccc(F)cc1	-2.0%	.	4.8	0.751	.	3.8
2.1	O=[N+]([O-])c1ccc(Cl)c(/C=N/n2c(COc3ccccc3)n[nH]c2=S)c1	8.1%	-53.3	.	.	i	2.2
.	CN(C)CCCNc1nc2cc(-c3ccccc3CO)sc2c(=O)n1C	.	3.0	.	.	i	3.9
0.1	CC(C)(O)C#Cc1ncc(C(F)(F)F)cc1Cl	9.4%	-1.9	2.2	0.729	i	-3.6
-1.6	Cc1cc(Cl)c(S(=O)(=O)Nc2ccc3c(c2)OCCO3)cc1OCC(=O)NC1CCCCC1	-3.0%	.	1.1	0.732	.	-4.8
1.8	CN(C)S(=O)(=O)c1ccc(NC(=O)CN2C(=O)NC3(CCCC3)C2=O)cc1	.	2.2	2.4	0.706	i	-0.3
5.9	CCOC(=O)c1cc2sccc2n1CC(=O)Nc1ccc(OC)cc1OC	-8.0%	-46.5	0.8	0.703	i	0.8
1.5	CCOc1ccccc1NC(=O)CSc1ccccc1	-1.8%	.	6.5	0.661	.	0.4
.	COC1=NC2=NCCN2C(OC)=N1	-5.3%	-1.0	3.8	0.66	i	-2.9
-2.7	CCOC(=O)c1nc(N/N=C/c2ccccc2)sc1Br	10.7%	1.0	.	.	i	1.4
.	O=C(Nc1nnc([C@H]2C[C@H](O)[C@@H](CO)O2)s1)c1cccc(C(F)(F)F)c1	.	-2.7	.	.	i	-3.4
2.8	O=C(NCc1ccc2c(c1)OCO2)c1ccc(N2CCCC2=O)cc1	-6.4%	.	1.8	0.68	.	-2.7
0.5	COC(=O)c1cc(NC(=O)C2C3C=CC(C3)C2C(=O)O)cc(C(=O)OC)c1 (centres undefined)	-0.8%	.	0.0	0.663	.	0.2
-2.4	CCOC(=O)N1CCN(C(=O)CSc2nnc(-c3ccc(C)c(C)c3)o2)CC1	1.4%	-4.9	4.5	0.755	i	4.5
.	CN(C(=O)COC(=O)c1cc(=O)[nH]c2ccccc12)c1ccccc1	5.8%	-2.4	-32.4	0.671	i	4.8
2.4	C[C@H](O)[C@@H](C(=O)N1CCN(C(=O)OC(C)(C)C)CC1)n1cc(CCCCNC(=O)OC(C)(C)C)nn1	-5.4%	.	0.4	.	i	-1.5
-0.6	O=C(c1cc(-c2cccc(O)c2)on1)N1CCN(C(c2ccccc2)c2ccccc2)CC1	?	-1.4	3.0	0.692	i	2.6
-1.5	COc1ccc(CCNC(=O)CSc2nnc(CNc3ccc(Cl)cc3)o2)cc1OC	14.4%&-3.8%	.	1.8	0.703	.	1.7
.	COc1ccc(C2(C)NC(=O)N(CC(=O)N(c3ccccc3)C3CCS(=O)(=O)C3)C2=O)cc1 (centres undefined)	-7.5%	-3.5	5.6	0.668	i	3.0
.	C[C@H](NC(=O)c1ccco1)C(=O)N1CCN(c2ccc(C(F)(F)F)cn2)CC1	.	-0.9	0.7	0.663	i	-1.0
4.3	O=C(CCN1C(=O)C2C3CCC(C3)C2C1=O)OCC(=O)c1ccc(Cl)cc1 (centres undefined)	.	2.4	-0.4	0.695	i	2.8
-1.1	COc1ccc(CCN(C)CCC(=O)Nc2cc(C)ccc2C)cc1OC	-12.8%	.	2.1	0.687	.	-0.8
3.8	O=C1OC(c2ccco2)=N/C1=C\c1ccc(-c2cccc(C(F)(F)F)c2)o1	.	-15.3	-11.8	0.7	i	3.0
0.1	Cc1ccc(S(=O)(=O)NCC23C=CC(O2)C2C(=O)N(c4ccccc4)C(=O)C23)cc1 (centres undefined)	11.4%	.	-2.0	0.732	.	0.5
-1.3	COCCNC(=O)C(c1ccccc1)N(C(=O)Cn1nnc2ccccc21)c1cccnc1 (centres undefined)	-2.9%	.	5.5	0.726	.	-6.3
5.1	Cc1ccc(Cn2nnc3c(=O)[nH]c(C4CCN(S(=O)(=O)c5cc(C)ccc5C)CC4)nc32)cc1	-2.4%	.	-1.0	0.722	.	1.1
-3.0	Cc1ccccc1NC(=O)CSc1nn2c(=O)c(C)nnc2s1	24.6%	-2.9	2.0	0.724	i	-4.4
6.5	CS(=O)(=O)Nc1ccc(C(=O)Nc2ccc(S(=O)(=O)N3CCCC3)cc2)cc1	8.0%	-17.9	4.4	0.69	i	3.4
0.1	COc1ccc(OC)c(/C=N/NC(=O)CCc2ccc(O)c(O)c2)c1	?	.	.	.	.	-1.3
0.9	CCC(=O)Nc1cc2c(cc1C(C)=O)OCCO2	18.2%	.	-5.7	0.798	.	-1.0
-0.4	Cc1ccn(C)c(=N)c1	8.5%	-2.4	.	.	i	2.5
-0.2	O=C(Nc1ccc(S(=O)(=O)N2CCc3ccccc32)cc1)c1ccco1	1.5%	.	2.0	0.672	.	0.7
